NPYLR7 agonist = agonists of mosquito NPYLR7 receptor, primary screen, cell-based, Aedes aegypti, calcium fluorescence, mosquito biting behavior | Aedes aegypti neuropeptide Y-like receptor 7 (NPYLR7) | HEK293T NPYLR7/Galpha15, GCaMP6s calcium fluorescence | activation, % at 10 µM | 270,000 compounds, 0.15% hits; in the data active = activation above about 40%;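 note: 0% = vehicle and 100% = reference agonist at the receptor; some compounds past the cut are filed as inactive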
NPYLR7 agonist max-min = recorded beside NPYLR7 agonist, whose call it bears; activation, %; measured here: Max-Min RFU normalised activation; some inactives read as strong as hits;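 span of the calcium signal over five minutes; 0% = vehicle and 100% = native peptide agonist; compound fluorescence can raise it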
* hit, by the source's call; & = joins results of further samples. Not all compounds are listed; rates above refer to the full screens.

SMILES	NPYLR7 agonist	NPYLR7 agonist max-min
O=C(NCc1ccccc1)N1CCN(Cc2ccc3c(c2)OCO3)CC1	-7	-7
CCN1CCN(C(=O)c2ccc(Cn3c(C)c(C)sc3=NC(=O)c3ccccc3F)cc2)CC1	4	2
CCOc1ccc(NC(=O)c2c(NC(=O)Cc3ccccc3)sc3c2CCC(C)C3)cc1 (stereo not drawn)	1	4
CCOC(=O)c1sc2nc(CN(Cc3ccco3)CC(O)CN3CCOCC3)[nH]c(=O)c2c1C (stereo not drawn)	8	13
CC(=O)NCCn1ccnc1-c1cccc(OC2CCCC2)c1	20	20
O=C(CSc1nc2ccccc2[nH]1)Nc1ccc(O)c(C(=O)O)c1	-11	-19
CCCCN(S(C)(=O)=O)S(=O)(=O)c1ccc(OC)cc1	7	1
COc1cccc(-c2c(Nc3ccc(C)cc3C)oc3c2c(=O)n(C)c(=O)n3C)c1	-1	-3
CCCc1nc(Nc2ccccc2)[nH]c(=O)c1Br	-4	-5
CCc1nc2ccc(C(=O)NCCN3CCOCC3)cn2c1N(C)C(=O)Nc1ccccc1OC	-3	-7
CN(Cc1cn[nH]c1-c1ccc(F)cc1)C(=O)CCc1cccnc1	1	-2
CCOC(=O)c1ccc(OC2CC3CCC(C2)N3C(=O)c2ccc(CSc3ccc(NC(C)=O)cc3)cc2)cc1 (stereo not drawn)	1	-6
Cc1cc(-n2c(C)cc(C(=O)CSc3n[nH]c(-c4cccs4)n3)c2C)no1	4	4
CCc1ccc(C(C)NC(=O)Nc2cccc(S(=O)(=O)N(C)C)c2)cc1 (stereo not drawn)	9	7
Cc1nn(C)c(C)c1CCC(=O)N(C)Cc1cnn(-c2ccc(F)cc2)c1	-2	-2
Fc1ccccc1N1CCN(c2ncnc3[nH]ncc23)CC1	8	8
O=c1oc2ccc(Cl)cc2cc1-c1nnc(-c2ccccc2)o1	2	-3
COc1cccc(CN2CCNC(=O)C2CC(=O)NCCc2cccc(Cl)c2)c1OC (stereo not drawn)	-1&3	-1&-1
O=C(c1ccon1)N1CCCn2nc(C(=O)N3CCOCC3)cc2C1	2	4
COc1cccc(CO[C@]2(C(=O)NCC3CCCO3)CC(OCc3cccc(F)c3F)[C@@H]3OC(C)(C)O[C@@H]3C2)c1 (stereo partly drawn)	9	19
CC(C(=O)N(C)Cc1ccnc2ccccc12)n1cccc1 (stereo not drawn)	22	6
CCN(CC)CCN1CCN(c2cncc(-c3ccc(CO)cc3)n2)CC1	-12	-14
CC(C)(C)c1cc(C(=O)N=Nc2c(O)[nH]c3ccc(Br)cc23)n[nH]1	8	7
Cc1cc(=O)oc(C)c1C(=O)OC(C(=O)N(C)C)c1ccccc1 (stereo not drawn)	1	-4
Cc1cccn2c(=O)c(C(=O)NCCCO)c(O)nc12	-1	14

For convenience, 7 of the compounds above.
SMILES	NPYLR7 agonist	NPYLR7 agonist max-min
O=C(NCc1ccccc1)N1CCN(Cc2ccc3c(c2)OCO3)CC1	-7	-7
CCN1CCN(C(=O)c2ccc(Cn3c(C)c(C)sc3=NC(=O)c3ccccc3F)cc2)CC1	4	2
CCOc1ccc(NC(=O)c2c(NC(=O)Cc3ccccc3)sc3c2CCC(C)C3)cc1 (stereo not drawn)	1	4
CCOC(=O)c1sc2nc(CN(Cc3ccco3)CC(O)CN3CCOCC3)[nH]c(=O)c2c1C (stereo not drawn)	8	13
CC(=O)NCCn1ccnc1-c1cccc(OC2CCCC2)c1	20	20
O=C(CSc1nc2ccccc2[nH]1)Nc1ccc(O)c(C(=O)O)c1	-11	-19
CCCCN(S(C)(=O)=O)S(=O)(=O)c1ccc(OC)cc1	7	1

More structures.
SMILES	NPYLR7 agonist	NPYLR7 agonist max-min
OC(c1ccccc1)c1cc(Cl)ccc1Cl (stereo not drawn)	-2	-9
COCC(=O)Nc1c(-c2ccccc2OC)nc2ccc(C)cn12	-4	3
Cc1ccc(-c2ccnc(-c3ccn[nH]3)n2)c(C)n1	2	40
CCCN(CC(=O)Nc1ccc(F)c(F)c1F)Cc1csc(N(C(C)=O)c2ccccc2F)n1	10	9
O=C(NCC1CCCO1)c1ccccc1N1CCC(NS(=O)(=O)c2ccccc2)CC1 (stereo not drawn)	25	17
Cc1nn(CC(=O)Nc2ccc(S(N)(=O)=O)cc2)c(=O)c2ccccc12	-3	-10
Cc1nc2c(-c3ccccc3)cnn2c(N2CCCCC2)c1C	-1	-3
CN(C)Cc1cc(-c2nccn2Cc2cnn(C)c2)ccc1O	20	13
Cc1ccc(Nc2nc3ccccc3c(=O)n2C)cc1	12	6
OCC(O)/C=N\Nc1nc(N2CCCCC2)nc(N2CCCCC2)n1 (stereo not drawn)	-1	-1
CCc1cnc(C)nc1NCCN1CCCOC1=O	-4	-6
O=S(=O)(NC1CCC2(CC1)OCCO2)c1ccccc1Br	1	0
COc1ccccc1OCC1CN(C(=O)CNC(=O)c2ccco2)CCO1 (stereo not drawn)	30	30
Cn1cc(C(=O)NCc2ccco2)c2n[nH]c(=O)c-2c1	-2	-2
CCc1c(C(=O)N(Cc2cccnc2)C[C@@H]2CCC(=O)N2)[nH]c2ccccc12	4	0
Cc1cc(C)c(S(=O)(=O)N2CCN(c3ccc(-n4cccn4)nn3)CC2)c(C)c1	-6	-12
CCc1ccccc1NC(=O)Cn1ccn2nc(-c3ccccc3)cc2c1=O	6	4
O=C(O)c1ccc(-n2cccc2)cc1	-3	-4
CC(=NOCc1nnc(-c2cccs2)o1)c1cc2ccccc2o1	3	1
CC(C)c1cccc2c1OCCCC2=O	24	19
O=C(NCCc1nc2ccccc2[nH]1)c1cc(-c2ccccc2)n(C2CCS(=O)(=O)C2)n1 (stereo not drawn)	2	1
CCOC(=O)C1CCCN(C(=O)c2cc(-c3ccc([N+](=O)[O-])cc3)nn2-c2ccc(Cl)cc2)C1 (stereo not drawn)	-5	-4
CC(C)c1ccc(NC(=O)Cn2nnc(C(=O)NCc3ccccc3)c2N)cc1	8	11
O=C(NCC1CCCO1)c1csc(COc2cccc(C(F)(F)F)c2)n1 (stereo not drawn)	2	10
Cc1ccnc(NC(=O)c2ccc3c(c2)CC(c2ccccc2)OC3=O)c1 (stereo not drawn)	-4	-7
SMILES	NPYLR7 agonist	NPYLR7 agonist max-min
Cc1ccc(C(=O)Nc2c3c(nn2-c2cc(C)cc(C)c2)CSC3)cc1	-2	3
COCCCNC(=O)c1nn(-c2ccc(OC)cc2)c(=O)n(Cc2cccc(OC)c2)c1=O	14	22
CCOCCC1(CNC(=O)C2CC(=O)N(C)C2)CCCC1 (stereo not drawn)	1	-1
O=C(O)CCc1nnc(-c2cccc(C(F)(F)F)c2)o1	-8	-9
CC(C(=O)O)N1C(=O)C2CCCCC2C1=O (stereo not drawn)	-5	-9
CCc1ccc2c(c1)sc(=NC(=O)CCS(=O)(=O)c1ccccc1)n2C	2	-2
CN1CCCN(CC(=O)NCc2cccc(Oc3ccccc3)c2)CC1	1	1
Cc1ccc(CNC2CC(=O)N(Cc3ccccc3C(F)(F)F)C2)o1 (stereo not drawn)	1	-3
CC(=O)Nc1cccc(-c2ccccc2OC(C)C)c1	-5	-7
CCC(Oc1ccccc1)C(=O)N1CCC2(CCCCC2)C1 (stereo not drawn)	2	5
CCCCN(C1CCS(=O)(=O)C1)S(=O)(=O)c1ccc(Br)cc1 (stereo not drawn)	0	34
O=S(=O)(Nc1cccc(S(=O)(=O)C2CCCC2)c1)c1ccc(Cl)c(Cl)c1	4	-2
COc1ccc(/C=N\N=C(N)c2nonc2N)c(OC)c1	3	3
Cc1cc(N2CCCN(Cc3coc(-c4ccccc4)n3)CC2)ccn1	4	6
Cn1c(-c2nc(C(=O)Nc3nc(-c4cccnc4)cs3)cs2)cc2ccccc21	2	-1
Cn1c(C2C3CCCCC32)n[nH]c1=S (stereo not drawn)	-5	-10
COc1ccc(-c2csc(-n3[nH]c(C)c(N=Nc4ccc(F)cc4)c3=O)n2)cc1	2	2
Cc1ncoc1C(=O)N(Cc1ccccc1)[C@H]1C[C@H]2CCOC[C@@]2(c2ccccc2)C1	-6	0
COc1cc2c(cc1OC)C1CN(C(=O)COC(C)=O)CC(=O)N1CC2 (stereo not drawn)	1	9
COCc1cc(C)nc(OCC(=O)N/N=C\c2ccc(/C=N\NC(=O)COc3nc(C)cc(COC)c3C#N)cc2)c1C#N	6	19
O=C(NCC1CCCN(Cc2cc(Cl)ccc2O)C1)c1cccnc1 (stereo not drawn)	-3	-4
CCC(=O)Nc1cccc(OCC(=O)N[C@H]2C[C@H]3CN(C)CCN3C2)c1	-5	-9
O=C(NCCc1ccccn1)c1cccc(Nc2c(Oc3ccccc3)cnn(-c3ccccc3Cl)c2=O)c1	-7	5
O=C(COc1coc(CN2CCN(c3ccccc3F)CC2)cc1=O)NCc1ccco1	-1	-2
O=C1c2cccc3c2[C@H](CCC3)CN1[C@@H]1CN2CCC1CC2	-7	-10
SMILES	NPYLR7 agonist	NPYLR7 agonist max-min
COc1ccc(CNC(=O)/C(C#N)=C/N2CCN(c3ccccc3)CC2)cc1	5	2
CCCCCN(C(=O)c1ccc(Cl)c(Cl)c1)C(CC)c1nc2ccccc2c(=O)n1-c1cccc(Cl)c1 (stereo not drawn)	6	0
COc1cc(OC)cc(C(=O)Oc2cccc(NC3=NS(=O)(=O)c4ccccc43)c2)c1	3	0
COc1ccc(-c2noc(CN3CCN(C(=O)C=Cc4cc(Cl)cc(Cl)c4)CC3)n2)cc1	1	4
CCSc1nnc(NC(=O)c2cc(C)on2)s1	5	4
COCC(=O)NCC1=CCCN(Cc2ccc3c(c2)OCO3)C1	6	-1
CCc1nc2n(n1)C(=O)C(C(c1ccc(OC)cc1)N1CCN(c3ccc(F)cc3)CC1)S2 (stereo not drawn)	-6	-10
NC(=O)C1CCN(c2ncccc2CNCC2CCCCCCC2)CC1	1	-1
Cc1cc(N2C(=O)CCS2(=O)=O)cc(C)c1S(=O)(=O)N(C)CCc1ccncc1	3	2
CCn1c(C)c(C(=O)CN(C(=O)COCc2ccccc2)C2CCCCC2)c(C)c1C(=O)OC	-12	-7
CCc1c(C)nc(-c2cccc(F)c2)nc1N1CCN(C(=O)CCc2ccccc2)CC1	-2	0
CCn1cnnc1CN(C)C(=O)c1csc(Cc2ccccc2)n1	3	2
CC(=O)Nc1ccc(N2C(=O)C(C)Oc3ccc([N+](=O)[O-])cc32)cc1 (stereo not drawn)	0	-2
CCOc1cc(C=C2N=C(c3ccccc3F)OC2=O)ccc1OC	0	4
COc1cc2c(cc1OC)CN(C(=O)c1cn[nH]n1)CC2	-11	-16
O=C(Nn1cnc2c(cnn2-c2ccccc2)c1=O)c1cc2ccccc2oc1=O	16	14
O=C(CCl)N1CCN(c2ccc(O)cc2)CC1	-8	-12
O=c1nc(SCc2ccc(Br)cc2)nc2ccccn12	4	3
CCCc1cc(=O)n2[nH]c(C)c(-c3ccc(Cl)cc3)c2n1	-13	-20
COc1cccc(Cn2c(C)cc(C)c2C(=O)N(C)Cc2ccccc2)c1	11	19
CC1CN(C(=O)c2cc3ccoc3n2C(C)c2ccccc2)CCN1C(=O)Cc1ccccc1 (stereo not drawn)	-1	6
O=C(NCc1ccco1)c1ccc(CSc2nnc(-c3ccncc3)n2-c2ccc(F)cc2)cc1	4	15
S=C(NCCC1=CCCCC1)NC1CC2CCC1C2 (stereo not drawn)	8	8
Cc1cccc(C(=O)N(CCCN(C)C)c2nc3ccc(F)cc3s2)c1	10	9
CC1(C(=O)NS(=O)(=O)Cc2ccccc2C(F)(F)F)CCN1C(=O)CCC1CCCC1 (stereo not drawn)	1	0

Among those listed so far, 4 contain a COOH group:
SMILES	NPYLR7 agonist	NPYLR7 agonist max-min
O=C(CSc1nc2ccccc2[nH]1)Nc1ccc(O)c(C(=O)O)c1	-11	-19
O=C(O)c1ccc(-n2cccc2)cc1	-3	-4
O=C(O)CCc1nnc(-c2cccc(C(F)(F)F)c2)o1	-8	-9
CC(C(=O)O)N1C(=O)C2CCCCC2C1=O (stereo not drawn)	-5	-9

Next part.
SMILES	NPYLR7 agonist	NPYLR7 agonist max-min
CCCc1ccccc1N1C(=O)CSC1c1ccc(NC(=O)c2cccc(Br)c2)cc1 (stereo not drawn)	6	22
Cc1nc2c(C)cccn2c(=O)c1NC(=O)c1ccccc1	3	3
Cc1ccccc1OCC(O)CN(Cc1c(-c2ccccc2)noc1N(C)C(C)C)C1CC1 (stereo not drawn)	14	14
CN1CCCC(COC(=O)C2=COCCC2)C1c1ccc(C(F)(F)F)cc1 (stereo not drawn)	6	2
CCCN(C)c1cc(Oc2ccc(F)cc2)ncn1	-8	-2
O=C1C(=Cc2ccc(N3CCOCC3)o2)C(=O)c2ccccc21	-1	-3
COc1cc(CN2CCC3(CCCN(CC4CCC4)C3)C2)ccc1F (stereo not drawn)	9	6
Cc1ccccc1C(=O)N[C@@H]1CCCCC1NC(=O)C1CCN(C(=O)COc2ccccc2)CC1 (stereo partly drawn)	1	4
CCCCn1c(=O)n(C)c(=O)c2c1nnn2CC(=O)Nc1ccc(C)c(C)c1	-8	-12
NC(=O)c1cc2c(nc1/C=C/c1ccccc1)CCC2	0	1
CC1CCCN(c2nc3c(c(=O)[nH]c(=O)n3C)n2CCSc2ncccn2)C1 (stereo not drawn)	-1	-6
Cc1nnc(CN2CCC(NC(=O)C3CCCCC3)CC2)n1C	7	5
Cn1c(-c2c(-c3ccccc3)ncn2CCF)nc2ccccc21	0	-9
COc1cc(C2C(=C(O)c3ccc(C)cc3)C(=O)C(=O)N2CCN2CCOCC2)cc(OC)c1OC (stereo not drawn)	-2	3
CC(Nc1cccc2c1CCCC2)C(=O)N1CCOCC1 (stereo not drawn)	3	2
Cn1ccc2c(-c3ccccc3C(N)=O)ccnc21	8	3
CCOC(=O)N1CCN(C(c2ccc(CC)cc2)C2Sc3nc(CC)nn3C2=O)CC1 (stereo not drawn)	-4	-8
